Bioassay records (PubChem BioAssay)
Beta apoptosis = inhibitors of cytokine-induced beta cell apoptosis, primary screen, luminescence; INS-1E cytokine-induced death, ATP luminescence, 48 h; percent of positive-control rescue, neutral wells zero; protection from apoptosis, % (no concentration beside the values); actives 0.8% (n = 300,000); AID 435005, 2010;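 active = all replicates at 75% or more, or half of them and the mean; inconclusive = half reach 75% but not the mean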;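 note: 0% = cytokine-treated negative control wells and 100% = positive control rescue; higher means more ATP so stronger rescue from cytokine killing; wells of about 40 µL received 100 nL stock; the first replicate is given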
Calb FLC = C. albicans growth inhibition with fluconazole, primary screen, CaCi-2 strain, Alamar Blue fluorescence | AID 1979, 2009 | actives 0.57% (n = 300,000) | growth inhibition, % (test concentration not listed) | C. albicans CaCi-2 (fluconazole-resistant clinical isolate) + fluconazole, 48 h;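 active = most replicates above 75%; inconclusive = exactly half above 75%; inactive = most below 75%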;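 note: all wells also contain fluconazole at 8 µg/ml as a sub-toxic cotreatment; 0% = median of DMSO wells and 100% = median of geldanamycin control wells; wells of about 8 µL received 7.5 nL stock; the first replicate is given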
Ecoli rRNA inh = reduced GFP signal of wild-type E. coli, primary screen, bacterial rRNA inhibitor project, GFP/RFP fluorescence, OD600, single point; actives 1.6% (n = 350,000); GFP signal change (wild-type ribosome), % (no concentration beside the values); E. coli WT GFP vs humanized-ribosome RFP mutants, 24 h; active compounds read low; DMSO median 0, no signal -100;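 active = significant combined selectivity score with lowered wild-type GFP, culture density cut under 30%, mutant RFP and density less affected; inactive = any of these conditions unmet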; note: one replicate is shown; some compounds called inactive have numbers as strong as hits
Vif A3G = inhibitors of Vif binding to APOBEC3G peptide, primary screen, biochemical, TR-FRET, GST-Vif 1-94, biotin-A3G peptide, dose response retest (AID 1117319) | Virion infectivity factor (Human immunodeficiency virus type 1 group M subtype B (isolate … | actives 0.57% (n = 260,000) | inhibition, %, or IC50 in µM where a hit was titrated | TR-FRET GST-Vif / biotin-A3G peptide binding; higher % means a stronger effect; test concentration not given here; strong numbers were not always called active;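 active = above the screen mean plus three standard deviations and confirmed in dose response; inconclusive = results disagree or hit not tested in dose response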;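 note: Vif residues 1-94 fused to GST binding biotinylated APOBEC3G peptide 110-148; 0% = full assay without inhibitor and 100% = GST in place of GST-Vif; retest series ran down from 100 µM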
RanGTP-Impb inh = inhibitors of RanGTP-importin-beta interaction, primary screen, biochemical, FRET, CFP-Ran, YFP-importin-beta, homogeneous | AID 2216, 2009 | actives 1.1% (n = 300,000) | inhibition, % (test concentration not listed) | cell-free CFP-Ran/YFP-importin-beta FRET ratio;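 active = most replicates above 15%; inconclusive = exactly half above 15%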;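 note: 0% = DMSO wells and 100% = Ran loaded with GDP instead of GTP; wells of about 40 µL received 100 nL stock; the first replicate is given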
MLL AF4-AF9 inh = inhibitors of AF4 peptide binding to AF9, primary screen, biochemical, AlphaScreen, biotin-AF4 peptide, FLAG-AF9, single point; Protein AF-9 (Homo sapiens), P42568; inhibition, % at 10 µM; actives 0.47% (n = 350,000);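 active = every replicate reaching a set inhibition limit, whatever the replicate mean, cut at about 25% in these data; inconclusive = mean inhibition reaches that limit but some replicates miss it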;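 note: 0% = plate neutral control median and 100% = total signal loss; the record names both 10 and 1 µM as test concentration; the first replicate is given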
Target sequence (P42568 whole entry, looked up): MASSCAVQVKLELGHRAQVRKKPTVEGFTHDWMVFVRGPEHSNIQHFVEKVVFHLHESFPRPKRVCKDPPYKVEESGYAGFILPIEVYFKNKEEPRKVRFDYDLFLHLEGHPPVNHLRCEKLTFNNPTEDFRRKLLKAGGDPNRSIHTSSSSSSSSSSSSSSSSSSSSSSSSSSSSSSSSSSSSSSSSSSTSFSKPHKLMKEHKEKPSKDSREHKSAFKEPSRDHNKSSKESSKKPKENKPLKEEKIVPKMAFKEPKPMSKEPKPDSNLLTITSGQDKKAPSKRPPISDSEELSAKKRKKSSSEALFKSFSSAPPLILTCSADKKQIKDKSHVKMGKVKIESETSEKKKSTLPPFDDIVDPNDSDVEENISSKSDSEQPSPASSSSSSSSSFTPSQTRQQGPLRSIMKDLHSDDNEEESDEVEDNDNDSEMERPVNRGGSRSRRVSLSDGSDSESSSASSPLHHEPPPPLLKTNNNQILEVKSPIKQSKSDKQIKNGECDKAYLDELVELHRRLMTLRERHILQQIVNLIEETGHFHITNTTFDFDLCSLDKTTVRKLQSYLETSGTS
T cruzi repl = inhibitors of intracellular T. cruzi growth, primary screen, luminescence, NIH3T3 host cells; T. cruzi beta-gal in NIH3T3, 90 h; inhibition, % (no concentration beside the values); actives 1.4% (n = 300,000);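 active = mean inhibition across valid replicates above about 55%, limit read from the data; inconclusive = mean below that limit but half or more replicates reach it; inactive = mean below it, under half of replicates reach it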;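 note: signal also drops with host cell toxicity which is not excluded here; 0% = plate median of DMSO wells and 100% = zero luminescence signal; higher percent means less beta-gal luminescence so fewer parasites; stock transfer was 50 nL into about 50 µL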
A1 inh = caspase 3/7 activation in MEF A1-2A-BIM cells, primary screen, A1 inhibitor project, cell-based, luminescence, HTS. AID 2462, 2010. Caspase-Glo 3/7 luminescence, 3 h; percent of clofoctol response, vehicle zero. caspase activation, % (concentration not given with the values). actives 0.066% (n = 330,000);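 active = over half of replicate activation scores above 10%, or exactly half above 10 with the replicate mean above 10; inconclusive = replicate mean below 10 yet half the replicates above 10; inactive = over half of replicates below 10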;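 note: wells of about 30 µL received 50 nL stock; many hits fall short of the cut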
Ecoli rRNA inh OD600 = also measured in Ecoli rRNA inh; calls as there; OD600 change, %; measured here: OD600 growth;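 optical density of the mix in the first replicate; 0 = DMSO median and -100 = no signal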
Ecoli rRNA inh RFP = recorded beside Ecoli rRNA inh, whose call it bears; RFP signal change, %; measured here: RFP humanized mutant strains;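 first replicate; 0 = DMSO median and -100 = no signal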
* marks the source's active call; other numbers are inactive results; ? = inconclusive; . = no result given. Only part of the results is shown; rates above refer to the full screens.

Below each SMILES: Beta apoptosis, Calb FLC, Ecoli rRNA inh, Ecoli rRNA inh OD600, Ecoli rRNA inh RFP, Vif A3G, RanGTP-Impb inh, MLL AF4-AF9 inh, T cruzi repl, A1 inh
CC(CN1CCOCC1)C(=O)c1ccccc1 (stereo unspecified)
    -26, -12, ., ., ., 4%, 0.5, ., -2, 0.8
Cc1ccc(NC(=O)c2cc(NC(=O)C3CC=CCC3C(=O)O)ccc2N2CCOCC2)cc1 (stereo unspecified)
    -4, -5, ., ., ., 11%, 4.3, ., -8, 0.1
COc1cc(C(=O)NCC2CCCCC2)ccc1OCc1c(C)noc1C
    0, ., 9, 10, -1.5, -1%, ., 0.1, ., -0.5
CCC(NS(=O)(=O)c1ccc(C)cc1)C(=O)N1CCC2(O)CCCCC2C1 (stereo unspecified)
    ., -7, ., ., ., 1%, ?, ., -8, 0.4
O=C(CCC(=O)Nc1ccccc1)NNS(=O)(=O)c1ccc(Cl)cc1
    -8, -9, 0, 8, -0.8, ., ., -1.6, ., 0.1
C[N+]1(CC(=O)Nc2ccc(F)cc2)CCN(C(=O)c2ccco2)CC1
    4, -4, ., ., ., 1%, -2.4, ., 5, 0.1
N#Cc1c(NC(=O)CSc2nc(-c3ccccc3)cc(C(F)(F)F)n2)sc2c1CCC2
    7, 3, ., ., ., -5%, 1.2, ., 44, 1.4
O=C(Nc1ccc(SC(F)F)cc1)C1CC(=O)N(Cc2ccccc2)C1 (stereo unspecified)
    0, 5, -3, -18, -13, ., 0.4, -1.1, -5, ?
CCCCC(CC)C(=O)Oc1ccc(O)c(C(C)(C)C)c1 (stereo unspecified)
    13, 29, -22*, -17*, -2.7*, ?, 0.3, -1.8, -9, -0.5
Fc1ccc2[nH]c3c(c2c1)CN(C(=S)NCc1ccccc1)CC3
    -3, -2, -19, -36, 13, ., -3.2, 3.0, 13, 0.4
CC(C)CCNC(=O)/C=C/c1ccc(Br)cc1
    -9, 18, ., ., ., 11%, 3.9, 1.0, -17, -0.7
Oc1c(CN2CCCC2)cc(COCc2ccccc2)c2cccnc12
    73, ., 9, 14, -4.9, ., ., 6.6, ., -2.2
COc1cccc(-n2c(SCC(=O)Nc3cc(C)on3)nc3c([nH]c4ccccc43)c2=O)c1
    -11, 9, 16, 4, 4.1, 6%, 4.6, 4.2, 17, 0.1
O=C(Nc1ccccc1OC(F)F)c1oc2ccccc2c1COc1ccccc1
    -16, 12, ., ., ., 4%, 1.6, ., -7, -0.6
CC(C)C(O)(C#CCN1CCCC1)c1ccccc1 (stereo unspecified)
    -12, 5, ., ., ., 4%, 2.3, ., 4, 1.3
O=C(Nc1ccc2[nH]c(=O)[nH]c2c1)c1ccc(Cl)c(Cl)c1
    3, 10, 15, 12, -1.3, -2%, -13, 0.0, -19, 0.4
Cc1sc2cc3c(c(C(=O)c4ccccc4)[n+]2c1C)-c1cccc2cccc-3c12
    100*, 57, -51, -76, -25, ?, 0.0, 25*, 74*, -0.5
COC(=O)c1ccccc1NC(=O)CSc1nc(O)c(-c2ccccc2)c(=O)[nH]1
    -2, 6, 8, 3, -2.1, 8%, 2.1, -1.0, 7, -0.4
Cc1ccc(C(=O)N/N=C\c2sccc2C)cn1
    -6, 0, -3, 4, -2.0, ., 11, 1.5, -12, -0.2
CS(=O)(=O)C1=NSC2=NC(=O)/C(=C\c3ccc(OC(=O)c4ccco4)c(Br)c3)C(=N)N21
    -3, -18, 3, -4, 1.7, -3%, 7.2, -2.6, -8, -7.0
CC(C)NC(=O)NC(=O)COC(=O)c1ccc(S(=O)(=O)NCc2ccco2)cc1
    -2, ., 0, 3, -2.5, ., ., -13, ., 0.1
COc1ccccc1NS(=O)(=O)c1ccc(C(=O)NCC(c2cccs2)N2CCOCC2)cc1 (stereo unspecified)
    -6, ., -1, -10, 1.6, ., ., 2.2, ., 0.3
Cc1cc(C(=O)OCC(=O)c2cccc([N+](=O)[O-])c2)c2cccc(C)c2n1
    -1, 29, ., ., ., 3%, -1.0, ., 1, -0.3
CC(=O)NCC(=O)OCC(=O)Nc1ccc(C(C)=O)cc1
    -5, 6, ., ., ., 6%, -3.4, ., 2, -0.5
O=C(Nc1ccc(N2CCOCC2)c(Cl)c1)c1ccc([N+](=O)[O-])o1
    ., 11, 9, 16, 1.9, 0%, 0.0, 4.5, 22, .
CC12CC3(C)CC(C)(C1)CC(C(=O)NC(=S)NC(C)(C)C)(C2)C3
    -5, 2, 18, 16, -2.5, ?, 4.6, -0.4, -9, 0.7
O=C(O)CCCn1nc(-c2ccccc2)c2ccccc21
    -3, 3, -10, -18, -1.9, -4%, 2.6, 2.0, -12, -1.1
CC1=C(c2ccccc2)CCC1=O
    0, 0, -1, -2, -1.0, ., 0.0, -2.4, -20, -0.4
COc1ccc(NC(=O)CSc2ccc(C)cc2)cc1
    6, -46, ., ., ., -1%, 1.4, ., 7, -1.0
N=c1n(Cc2ccc(Cl)cc2)c2ccccc2n1CC(O)COc1ccccc1 (stereo unspecified)
    8, 30, -50, -82, -13, ., 1.2, 16, 37, -0.1
CCCCOc1ccc(C(=O)Nc2ccc(OCC(=O)N3CCOCC3)cc2)cc1
    5, 21, 8, 4, -0.8, ., -2.5, 0.1, 21, 1.2
Cc1nc(CS(=O)(=O)c2ccc(Cl)cc2)cc(Sc2ccc(Cl)cc2)n1
    ., 8, ., ., ., -1%, -3.6, ., ., -0.2
Cc1cc(C(=O)NCc2ccccc2Cl)c2ccccc2n1
    0, -6, -2, -2, 0.5, 16%, -6.5, -1.3, 3, 0.0
CCCCC(=O)Nc1cc(C(=O)NCCc2ccccc2)ccc1Cl
    6, -18, ., ., ., -3%, 7.4, ., -3, 0.0
N#CC1=C(N)Oc2cc(O)ccc2C1c1cccnc1 (stereo unspecified)
    0, 13, 11, 6, 0.2, 3%, 38*, -7.3, -3, 0.7
CCc1ccccc1NC(=O)c1cc(C2CC2)on1
    -2, 3, 6, 4, -0.9, 1%, -1.4, 3.1, -1, -2.7
CC(=O)c1c(N2CCN(CCO)CC2)nc(=S)n(-c2ccccc2)c1C
    -2, 2, 8, 4, 2.8, 4%, 62*, -4.7, -24, -0.3
C#CCOCCOCCOCCNc1nc(N2CCN(C(=O)[C@H](CCC(=O)O)n3cc(C(N)CO)nn3)CC2)nc(N2CCN(C(=O)[C@H](Cc3ccc(O)cc3)n3cc(C(N)[C@H](C)CC)nn3)CC2)n1 (stereo partly specified)
    -4, -4, 4, 2, -3.6, 1%, -1.4, 2.1, -10, 0.2
CCOC(=O)NN=C1CN(S(=O)(=O)c2ccc(C)cc2)C1
    -6, 13, 5, 12, 0.9, ., 6.0, 0.3, -9, -0.3
Cc1ccc(-n2cc(CN(C)Cc3ncc[nH]3)c(-c3cccc(C)c3)n2)cc1
    30, -4, -51, -81, -13, -3%, -1.7, 23, 58*, -0.2
CCC(=O)OC1(C)C(=O)C=C2C=C(c3ccc(C#N)cc3)OC=C2C1=O (stereo unspecified)
    -11, -3, -6, 12, 6.0, ., -0.5, -6.1, -11, 1.0
CCOc1ccccc1NC(=O)CSc1nnc(-c2cccnc2)o1
    -3, -9, 11, 11, -1.0, 1%, 4.1, -0.6, -2, 0.2
c1ccc(-c2noc(-c3ccc4c(c3)OCO4)n2)nc1
    74, 0, ., ., ., 18%, -1.1, ., -4, -7.8
Cc1n[nH]c(=O)c2ccccc12
    -2, 4, 13, 15, -0.4, -3%, -3.5, -3.2, -7, -0.1
CC(C)C(NC(=O)C1CCCCC1)C(=O)Nc1ccncc1 (stereo unspecified)
    -5, 0, ., ., ., 3%, 2.0, ., ., -0.6
O=C(N/N=C/c1ccc([N+](=O)[O-])o1)c1ccccc1NS(=O)(=O)c1cccs1
    1, -14, -4, 2, 1.3, 20%, ?, 6.0, 36, 0.7
CC(NC(=O)CSc1nc2ccccc2c(=O)n1CCCO)c1ccccc1 (stereo unspecified)
    -6, 1, 4, 1, 2.3, 6%, 5.1, 2.0, 18, 0.1
Cc1ccc(/C=C2/SC(=S)N(CCC(=O)N3CCN(C)CC3)C2=O)cc1
    -54, 23, 4, 3, -0.5, 5%, 3.9, 5.8, 14, -0.1
CC(=O)c1cccc(NC(=O)N2CCC(NC(=O)c3ccco3)CC2)c1
    2, -3, -3, -1, -0.9, ., -1.9, -0.7, -2, -0.1
CN(Cc1ccc(F)cc1)C(=O)c1ccc(NS(=O)(=O)c2ccccc2)cc1
    0, -3, -13, -24, -1.2, 3%, -3.4, -1.7, 5, 1.0
Brc1cc(Br)c2nc3c(cc2c1)CCC3
    -1, -1, -11, -43, -5.9, -36%, -6.0, -0.4, 3, -0.3
COc1ccc(CCNC(=O)Cc2cccs2)cc1
    -4, -15, ., ., ., -11%, 6.7, 2.2, 2, 0.0
COc1ccc(CC(=O)N(Cc2cc3cc(OC)ccc3[nH]c2=O)C(C)C)cc1
    -4, 47, ., ., ., 0%, 3.4, ., 26, -0.3
NNc1nnc(-c2ccccc2)c(-c2ccccc2)n1
    ., 2, ., ., ., 8%, -5.2, ., 3, 0.2
CCN(C(=O)C(C)Sc1ccc(S(=O)(=O)N2CCOCC2)cn1)c1ccccc1 (stereo unspecified)
    -2, ., -10, -11, -1.8, -11%, ., -1.3, ., -0.1
CSc1cccc(NC(=S)N2CCC(N(C)C3CCCCC3C)CC2)c1 (stereo unspecified)
    -6, -13, 7, -7, 1.5, 4%, 2.1, -22, 0, 0.3
CCc1ccc(OCc2n[nH]c(=S)n2C(C)CCCC(C)C)cc1 (stereo unspecified)
    11, 0, 10, 8, 2.8, 1%, 1.1, -2.2, 19, -0.8
Cn1c2ccccc2c2cnn(CC(=O)O)c(=O)c21
    -3, 11, ., ., ., -2%, 3.8, ., -8, -0.5
O=C(Nc1ccccc1)c1cnc[nH]1
    6, -5, ., ., ., 1%, 2.6, ., -8, -2.2
COc1cc(C(=O)Nc2ccc3c(c2)OCCO3)ccc1OC(C)C
    8, -27, ., ., ., 7%, 1.0, ., -14, -2.0
O=C(COc1cc2oc(=O)cc(-c3ccccc3)c2cc1Cl)NCC1CCC(C(=O)O)CC1 (stereo unspecified)
    -2, 4, -24, -32, -20, ., 5.9, -0.2, -8, 1.0
COc1cc(/C=C/C(=O)NCc2cccnc2)cc(OC)c1OC
    -5, 3, ., ., ., 19%, -1.1, ., -8, 0.1
NCCCCCc1nnc(SCC(=O)c2ccc(Cl)cc2)o1
    0, -4, ., ., ., -5%, 1.3, ., -6, 0.3
